# High-throughput results (PubChem BioAssay)
# HIV Env fusion: inhibitors of HIV-1 Env-driven cell-cell fusion, primary screen, HeLa-JRFL effector, CEM21 target cells, luciferase; inhibition, % at 12.3 µM; 360,000 compounds, 1.1% hits;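 active means mean replicate inhibition score of at least 50 and every replicate individually at or above 50; inconclusive means only one of the two criteria met; inactive means mean below 50 and not all replicates reaching 50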;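 further: 0% = plate neutral controls and 100% = maraviroc near 300 nM; one replicate is shown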
# eIF4H inh: human eIF4H binding inhibitors, primary screen, translation initiation inhibitor project, biochemical, uHTS, fluorescence polarization; AID 2012, 2009; Eukaryotic translation initiation factor 4H (Homo sapiens), Q15056; eIF4H fluorescence polarization binding assay; 290,000 compounds, 0.94% hits; inhibition, % at 35 µM;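 active means 50% or more with normal probe brightness, or confirmed in later tests; inconclusive means above 50% with abnormal brightness, or retests that disagree; inactive means below 50% or failed in later tests; about a fifth of its hits are not listed in these tables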;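 further: calls also rest on retests at 20 µM and on dose response follow-up; 0% = protein and probe with vehicle and 100% = probe without protein; strong numbers were not always called active; many hits fall short of the cut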
# CSC inhib: cancer stem cell viability inhibitors, primary screen, luminescence; 300,000 compounds, 1.1% hits; cancer stem cell-like cells viability; inhibition, % at 7.5 µM;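 active means mean at 75% or more and at least half the replicates too; inconclusive means mean and replicates disagree; tested in HMLE shEcad cells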;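 further: 0% = median of negative and 100% = median of positive control wells; the first replicate is given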
# MT1-MMP act inh: blockers of MT1-MMP proenzyme processing, primary screen, HT1080 RFP-PRO-GFP cells, GFP/RFP fluorescence; 360,000 compounds, 0.061% hits; Matrix metalloproteinase-14 (Homo sapiens), P50281; GFP/RFP ratio change, % at 20 µM; GFP/RFP ratio fluorescence, overnight; percent of plate control window, DMSO zero;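 active means GFP/RFP ratio change of at least 30% with cell ATP level not reduced by more than half and red fluorescence within 50% of control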; further: strong numbers were not always called active
#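 Read-out: GFP/RFP fluorescence ratio; Test system: RFP-PRO-GFP reporter HT1080 cells; Compound dosing: single-point 20 µM compound, 1% DMSO; Times: overnight compound exposure at 37 °C.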
# Rce1 inhib: yeast Rce1p protease inhibitors, primary screen, biochemical, fluorescence, cell-free homogeneous. 290,000 compounds, 0.27% hits. calls only. yeast membranes, quenched prenylated peptide cleavage fluorescence;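 active means fall in fluorescence gain of 50% or more versus controls, with final raw signal at or below 3038400; inconclusive means same 50% fall but final raw signal above 3038400; inactive means fall in fluorescence gain under 50%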;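 further: plate controls were neutral control wells for no effect and wells lacking membranes for full effect; tested at 10 µM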
# Target sequence (Q03530 whole entry, looked up): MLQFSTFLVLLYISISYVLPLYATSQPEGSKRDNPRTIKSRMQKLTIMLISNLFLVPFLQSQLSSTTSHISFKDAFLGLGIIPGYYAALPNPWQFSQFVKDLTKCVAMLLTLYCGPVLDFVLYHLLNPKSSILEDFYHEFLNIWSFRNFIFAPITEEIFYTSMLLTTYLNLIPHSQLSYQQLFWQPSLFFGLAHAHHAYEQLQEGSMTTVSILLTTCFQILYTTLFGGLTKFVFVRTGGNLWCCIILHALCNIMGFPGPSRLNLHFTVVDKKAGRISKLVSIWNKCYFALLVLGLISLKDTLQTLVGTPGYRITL
# PABP polyA inh: PABP poly(A) RNA binding inhibitors, primary screen, biochemical, fluorescence polarization, uHTS; Polyadenylate-binding protein 1 (Homo sapiens), P11940; inhibition, % at 35 µM; 290,000 compounds, 1% hits; AID 2014, 2009;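 active means 50% or more with normal probe brightness, or confirmed in later tests; inconclusive means above 50% with abnormal brightness, or retests that disagree; inactive means below 50% or failed in later tests; about a fifth of its hits are not listed in these tables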;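 further: calls also rest on retests at 20 µM and on dose response follow-up; controls were probe without protein and protein plus probe with vehicle; some compounds called inactive have numbers as strong as hits; many hits fall short of the cut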
# Yeast UUG start: modulators of yeast start codon fidelity, primary screen, whole organism, S. cerevisiae, single point, plate reader | S. cerevisiae UUG-firefly luciferase reporter, luminescence/redox ratio | activity score, % at 18.7 µM | 350,000 compounds, 0.13% hits;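 active means replicate mean at a twofold rise or more, about +100% in these data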;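 further: firefly luciferase made from a UUG start codon reports start codon fidelity; reporter light over untreated wells divided by growth signal over untreated wells; some hits fall short of that in this replicate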
# eIF4H inh retest: second read-out of eIF4H inh, no call of its own (marks repeat the call); inhibition, %; compound at 20 µM; confirmation average;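 mean of two retest wells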
# PABP polyA inh retest: further read-out of PABP polyA inh, marked with its call; inhibition, %; compound at 20 µM; confirmation repeats;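 mean of two retest wells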
# MT1-MMP act inh RFP: recorded beside MT1-MMP act inh, whose call it bears; RFP signal change, %; measured here: RFP expression control read;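 0 = vehicle wells; hits needed this value within 50% of zero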
# * marks the source's active call; other numbers are inactive results; i = inactive; ? = inconclusive; / = no result given; & = joins results of further samples.
SMILES,HIV Env fusion,eIF4H inh,CSC inhib,MT1-MMP act inh,MT1-MMP act inh RFP,Rce1 inhib,PABP polyA inh,Yeast UUG start,others
Cc1[nH]c(C)c(S(=O)(=O)NCCc2ccccc2)c1C(=O)N1CCCC1,-1,-12,-18,-1,2,i,7,6,
O=C(c1cccnc1)N1CCN(C(=O)c2ccco2)CC1,/,-5,-4,4,0,i,7,-21,
O=C(COc1ccc(Cl)cc1Cl)Nc1ccccc1F,-102,/,-5,1,-1,i,/,-52,
CC(=O)N1CCc2cc(S(=O)(=O)NC(CC(C)C)C(=O)N3CCc4ccccc4C3)ccc21 (stereo unspecified),-45,10,1,-6,-1,i,7,2,
CN(C)/N=C/c1c(O)ccc2ccccc12,/,5,-5,1,5,i,10,-6,
OC[C@@H]1CN(Cc2ccc(-c3ccccc3)cc2)C[C@H](n2cnc3c(NC4CC4)ncnc32)O1,0,/,/,-4,-18,/,/,-16,
Nc1ccn(Cc2cccc(F)c2)n1,17,4,14,-2,2,i,-9,0,
Cc1cc(Cl)ccc1C1=CC(=O)C[C@H](c2ccc(F)cc2)C1,-1,/,19,2,-3,/,/,-18,
CCOC(=O)c1ccc(CSc2n[nH]c(C)n2)o1,-21,6,1,1,2,i,4,-9,
O=C(Nc1ccc(-c2nc3ccccc3o2)cc1)C1CCCO1 (stereo unspecified),-156,1,/,-1,-2,i,13,-39,
Cc1n[nH]c(C)c1S(=O)(=O)N1CCC(C(=O)Nc2cccc(F)c2)CC1,7,2,12,1,5,i,5,-13,
CCOC(=O)C1(Cc2cccc(OC)c2)CCCN(C(=O)CSC)C1 (stereo unspecified),-27,/,1,2,3,i,/,-14,
c1ccc(-c2csc(Nc3nc(N4CCOCC4)nc(N4CCOCC4)n3)n2)cc1,/,-7,2,2,2,i,-12,-14,
O=C(NCc1ccc2c(c1)OCO2)C(=O)Nc1ccccc1,14,7,-4,5,5,i,11,/,
Nc1ccc(Cl)cc1C(=O)c1ccc[nH]1,?,/,/,-1,-5,/,/,-10,
CCN(CC)c1ccc(NC(=O)c2ccccc2F)cc1S(=O)(=O)Nc1ccccc1OC,-6,-5,-7,-7,-3,i,2,-15,
CCCCOC(=O)C1[C@H]2C(=O)N(CCc3ccccc3)C[C@]23C=C[C@H]1O3 (stereo partly specified),/,-8,15,-9,-1,i,-3,/,
O=C(O)C1C2C=CC(O2)C1C(=O)NCCC1=CCCCC1 (stereo unspecified),/,60,-6,-4,0,i,3,3,eIF4H inh retest=-9;PABP polyA inh retest=-2
O=C(CCC1CCN(C(=O)c2cccc(Cl)c2F)CC1)Nc1ccccc1,15,-4,-4,2,2,i,-11,-1,
CSC1=N/C(=C/c2cccnc2)C(=O)N1Cc1ccc(Cl)cc1,26,-9,-4,-1,-3,i,-8,-8,
CCSc1nc2ccccc2[nH]1,-10,-12&-15,5,-1&3,1&2,i,7&-3,-8&-5,
NS(=O)(=O)c1ccc(NC(=O)COC(=O)C2CC2)cc1,-25,/,-8,-2,3,/,/,32,
CCCCNC(=O)C(=O)NCCCn1ccnc1,-13,0,-12,1,4,i,0,/,
C=CCn1c(SCC(=O)Nc2ncc(Cc3ccc(Br)cc3)s2)nnc1-c1ccncc1,/,-6,-4,6,0,i,-13,-28,
C/C(=C\C(=O)C(F)(F)F)Nc1ccc(C(F)(F)F)cc1,/,-7,-14,6,4,i,-4,-8,
Cc1ccc2cc(C3C(C#N)=C(N)Oc4c3ccc3cccnc43)c(=O)[nH]c2c1 (stereo unspecified),/,25,70,-19,-6,i,5,-22,
CSCCC(Nc1nc2ccccc2s1)C(=O)O (stereo unspecified),-21,-19,8,-1,3,i,7,-3,
CC1CCCC(N2CCN(S(=O)(=O)c3ccccc3)CC2)C1 (stereo unspecified),6,12,12,0,0,i,27,-13,
Cc1cc(C)nc(NS(=O)(=O)c2ccc(-n3cccc3)cc2)n1,-11,2,-6,2,9,/,16,-37,
Cc1ccc(O)c(C(=O)c2cnc3c(c2)CN(CCC(C)C)C(=O)N3)c1,-26,6,27,3,4,i,4,2,
Cc1ccccc1Nc1c(N)c(=O)oc2ccccc12,-40,-7,/,3,1,i,-7,-22,
Cc1cccc2c1N(CCCOc1ccccc1)C(=O)C2=O,/,-7,13,/,/,i,-3,-4,
Cc1ccc(Cl)cc1NS(=O)(=O)c1ccccc1,-18,/,/,5,1,/,/,-11,
COc1cccc2sc(N3CCN(c4nc5ccccc5s4)CC3)nc12,4,-9,11,3,-2,i,2,-20,
COc1ccc(C2CC(Cn3cc(C#N)c(=O)n(C)c3=O)ON2C)cc1 (stereo unspecified),-8,-13,-10,1,4,i,-1,/,
O=C(Nc1nnc(-c2cc(Cl)ccc2Cl)o1)C1=COCCO1,/,/,-5,2,2,i,/,/,
Cc1cccc(NC(=O)CCS(=O)(=O)c2ccccc2)n1,6,11,-11,4,7,/,7,-17,
COc1ccc(CCNC(=O)CSc2nnc(Cn3c(=O)sc4ccccc43)n2C)cc1OC,/,-5,-12,0,1,/,1,/,
CCCCC(=O)NC(c1cccc([N+](=O)[O-])c1)c1ccc2cccnc2c1O (stereo unspecified),4,/,/,7,-6,/,/,-26,
CCC(=O)Nc1ccc(NC(=O)c2c(C)nc3ccccn23)cc1,-6,-12,-2,1,3,i,-6,-16,
CCn1c(=O)c(C(=O)NCc2cccnc2)c(O)c2ccccc21,-58,-1,-10,6,4,i,-4,-7,
CC(Oc1ccc2c3c(c(=O)oc2c1)CCCC3)C(=O)NCC1CCC(C(=O)O)CC1 (stereo unspecified),11,-16,-4,-4,3,i,1,-4,
O=C(COC(=O)Cc1ccccc1F)NC(=O)NC1CCCC1,-9,/,-17,0,2,/,/,-16,
Cc1cc(=O)[nH]c(SCc2nc3ccccc3n2Cc2ccccc2)n1,-14,-9,16,6,5,i,4,/,
CC(=O)NC(c1ccc(Cl)cc1)c1ccc2cccnc2c1O (stereo unspecified),1,/,/,14,-6,/,/,-15,
O=C1Nc2ccc([N+](=O)[O-])cc2OC1CCN1CCN(c2ccccc2)CC1 (stereo unspecified),1,-17,2,0,-1,i,-9,-25,
COc1ccc(/C=N/c2c(-c3ccco3)nc3ccccn23)cc1OC,-54,?,3,3,10,i,?,-16,
CCOC(=O)c1nc(NCCc2ccccc2)sc1C,-17,-2,-1,-1,-5,/,7,/,
CC(C)=CC1C=C(C)C(C)C2C(=O)NNC(=O)C12 (stereo unspecified),/,-1,/,4,3,i,-14,-4,
CCc1ccc(NC(=O)CS(=O)CC(=O)Nc2ccc(N3CCOCC3)cc2)cc1 (stereo unspecified),-1,-3,4,3,2,i,-9,-12,
COCCn1c(C)cc(C2=NNC(=NC(C)(C)C)SC2)c1C,-3,10,-5,-1,2,i,-6,-11,
Cc1sc2ncnc(N3CCC(C(=O)Nc4nc(-c5cccs5)cs4)CC3)c2c1C,0,/,-1,-4,-25,i,/,-20,
O=C(CCC1COc2ccccc2O1)Nc1ccc(Cl)cn1 (stereo unspecified),/,-4,61,-4,-1,/,-4,-9,
O=C(COC(=O)c1cnccn1)c1cccc([N+](=O)[O-])c1,-1,0,-6,3,7,i,13,-2,
CCCCCc1ccc(-c2ccc(/C=C/C(N)=O)cc2)nc1,-4,-8,-1,3,1,i,4,-35,
COc1ccc(S(=O)(=O)c2nnn(-c3cccc(OC)c3)c2N)cc1,9,-8,-2,0,-4,i,-6,/,
COc1ccc2oc(=O)c(C(=O)NCc3ccccc3)cc2c1,11,-3,-3,0,1,i,-10,-13,
COc1ccccc1C(=O)C1CCCN(C(=O)CN2CCCCC2=O)C1 (stereo unspecified),10,-7,-8,2,1,i,10,/,
COc1ccc(C(C#N)N2N=C(C)CC2c2ccccc2)cc1OC (stereo unspecified),-2,4,-13,-3,1,/,9,-23,
O=C(Nc1ccc(-c2nc3ccc(NC(=O)c4cccs4)cc3[nH]2)cc1)c1cccs1,/,-26,102*,3,2,i,-66,/,

# Molecules listed so far that have a Cl atom (nine):
SMILES,HIV Env fusion,eIF4H inh,CSC inhib,MT1-MMP act inh,MT1-MMP act inh RFP,Rce1 inhib,PABP polyA inh,Yeast UUG start,others
O=C(COc1ccc(Cl)cc1Cl)Nc1ccccc1F,-102,/,-5,1,-1,i,/,-52,
Cc1cc(Cl)ccc1C1=CC(=O)C[C@H](c2ccc(F)cc2)C1,-1,/,19,2,-3,/,/,-18,
Nc1ccc(Cl)cc1C(=O)c1ccc[nH]1,?,/,/,-1,-5,/,/,-10,
O=C(CCC1CCN(C(=O)c2cccc(Cl)c2F)CC1)Nc1ccccc1,15,-4,-4,2,2,i,-11,-1,
CSC1=N/C(=C/c2cccnc2)C(=O)N1Cc1ccc(Cl)cc1,26,-9,-4,-1,-3,i,-8,-8,
Cc1ccc(Cl)cc1NS(=O)(=O)c1ccccc1,-18,/,/,5,1,/,/,-11,
O=C(Nc1nnc(-c2cc(Cl)ccc2Cl)o1)C1=COCCO1,/,/,-5,2,2,i,/,/,
CC(=O)NC(c1ccc(Cl)cc1)c1ccc2cccnc2c1O (stereo unspecified),1,/,/,14,-6,/,/,-15,
O=C(CCC1COc2ccccc2O1)Nc1ccc(Cl)cn1 (stereo unspecified),/,-4,61,-4,-1,/,-4,-9,

# (cont.)
SMILES,HIV Env fusion,eIF4H inh,CSC inhib,MT1-MMP act inh,MT1-MMP act inh RFP,Rce1 inhib,PABP polyA inh,Yeast UUG start,others
COc1ccc2c(Cl)c(-c3nnc(SCC(=O)c4ccccc4)n3C)sc2c1,/,-10,-8,-4,-8,i,2,-15,
OCCC1CN(C2CCN(c3ccccc3F)CC2)CCN1Cc1ccccc1 (stereo unspecified),-6,8,25,0,-1,i,0,/,
CCCS(=O)(=O)N1CCN(c2ccccn2)CC1,-8,-8,3,9,5,i,1,-8,
CCOC(=O)N1CCN(C(=O)CSc2ccc(C(=O)OC)cc2[N+](=O)[O-])CC1,-3,-13,-7,-5,-1,i,0,7,
